High-throughput results (PubChem BioAssay)
GIV-Gai inh = inhibitors of GIV peptide binding to Galpha-i3, primary screen, biochemical, fluorescence polarization, FITC-GIV GBA peptide, rat Galphai3 | AID 1224905, 2016 | percent of control (FP), % (no concentration beside the values) | 90 min; hits give low values; scaled: aluminum fluoride 0%, vehicle 100% | actives 0.42% (n = 210,000) | Guanine nucleotide-binding protein G(i) subunit alpha-3 (Rattus norvegicus), P08753;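 active means replicate mean at 85% of control or lower, very high polarization wells dropped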;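 further: wells of about 15 µL received 100 nL stock; the first replicate is given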
Target sequence (P08753 whole entry, looked up): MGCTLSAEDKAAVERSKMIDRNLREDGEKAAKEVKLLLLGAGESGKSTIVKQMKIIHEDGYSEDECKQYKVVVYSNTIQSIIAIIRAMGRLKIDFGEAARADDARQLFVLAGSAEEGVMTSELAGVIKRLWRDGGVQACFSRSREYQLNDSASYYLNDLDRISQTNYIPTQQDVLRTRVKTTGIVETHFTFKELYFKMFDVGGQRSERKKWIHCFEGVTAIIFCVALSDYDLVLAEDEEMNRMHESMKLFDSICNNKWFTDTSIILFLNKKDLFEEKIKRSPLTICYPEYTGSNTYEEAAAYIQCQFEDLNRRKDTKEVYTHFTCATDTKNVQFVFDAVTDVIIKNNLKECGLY
HCMV UL50-53 inh = inhibitors of HCMV UL50-UL53 interaction, biochemical, HTRF. HCMV UL50-UL53 nuclear egress complex (human cytomegalovirus). normalized percent inhibition. inhibition, % (concentration not given with the values). actives 0.15% (n = 190,000);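 active means both replicates at 50% or more, plus weaker picks with an unusually low signal ratio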;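 further: stock transfer was 100 nL into about 20 µL; 0% = negative control wells and 100% = wells with untagged competitor protein; inactives centre near -12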
Sa growth inh = S. aureus growth inhibition at 42 and 30 °C, primary screen, LtaS inhibitor project, RN4220, two temperatures; OD600, 20 h, 42 °C; hits give low values; relative growth, % (concentration not given with the values); actives 0.53% (n = 170,000);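 active means growth at 42 °C up to 50% and 20 or more points under that at 30 °C, or under 10% at both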;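 further: 300 nL library stock went into each well; scaled to the means of positive and negative controls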
Sa growth inh second temp = further read-out of Sa growth inh, marked with its call; relative growth, %; measured here: growth at 30 °C;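 optical density after 20 h as mean of two plates; 100% = untreated growth and lower means inhibition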
* hit, by the source's call; . = not tested or not shown; & = joins results of further samples.

SMILES	GIV-Gai inh	HCMV UL50-53 inh	Sa growth inh	Sa growth inh second temp
COc1cccc2sc(=NC(=O)Cc3cccc4ccccc34)n(C)c12	107	.	74	100
COC(=O)N/N=C/c1c(C)nn(-c2cccc(Cl)c2)c1Cl	.	1	84	97
COc1cc(C2/C(=C(\O)c3ccc(F)cc3)C(=O)C(=O)N2Cc2cccnc2)ccc1O (stereo unspecified)	102	-38	107	89
CC(C)(C)[C@H]1COC(CC2=N[C@@H](C(C)(C)C)CO2)=N1	101	-46	93	84
O=C(COc1ccccc1)OCN1C(=O)c2ccccc2C1=O	105	-18	112	97
CCOC(=O)N1CCN(C(=O)CN2C(=O)/C(=C\c3ccc(C)cc3)Sc3ccccc32)CC1	106	.	79	78
CCc1ccc(-c2ccc(=O)[nH]n2)cc1S(=O)(=O)N(CC)CC	102	-40	.	.
O=C(c1ccc(CNS(=O)(=O)c2ccccc2)cc1)N1CCN(c2ccccn2)CC1	102	.	81	58
COc1ccccc1-c1nnc(C2CCN(S(=O)(=O)c3ccc(F)c(C)c3)CC2)o1	106	-30	120	95
CC1CCN(S(=O)(=O)c2ccc(N=C3C(=O)Nc4ccccc43)cc2)CC1	.	-17	81	84
CCOc1ccc(NC(=O)Cn2cc(S(=O)(=O)N3CCN(c4ccccc4F)CC3)c3ccccc3c2=O)cc1	107	-3	97	86
c1ccc(Cc2nnc(SCc3nc(-c4cccs4)no3)n2-c2ccccc2)cc1	103	-4	90	81
O=C1NC(=S)N/C1=C/c1cc(Br)ccc1OCc1cccc2ccccc12	105	-15	.	.
Cc1cccc(NC(c2ccccc2F)c2c(NC(=O)c3ccccc3)sc(C)c2C)n1 (stereo unspecified)	105	-33	.	.
Cc1nc(OCC(=O)NC(C)C)c2c(C)c(C)oc2n1	102	-26	.	.
Cc1cc(C)c(NC(=O)C(C)n2nc(-c3ccc(C)c(C)c3)ccc2=O)c(C)c1 (stereo unspecified)	104&97	-22&-16	109	78
COCCCn1c(SCC(=O)N2CC(=O)Nc3ccccc32)nnc1-c1ccoc1C	97	-3	128	92
COCC(=O)Nc1nc2nc(-c3ccccc3)cc(=O)n2[nH]1	94	-7	86	82
CS(=O)(=O)Nc1ccc2c(c1)N(C(=O)c1ccccc1)CCC2	109	-16	.	.
COc1ccc(C(=O)NCCn2cc(SCC(=O)Nc3ccccc3)c3ccccc32)cc1	96	.	135	82

5 entries picked at random from the list so far, as already listed:
SMILES	GIV-Gai inh	HCMV UL50-53 inh	Sa growth inh	Sa growth inh second temp
CC(C)(C)[C@H]1COC(CC2=N[C@@H](C(C)(C)C)CO2)=N1	101	-46	93	84
COCCCn1c(SCC(=O)N2CC(=O)Nc3ccccc32)nnc1-c1ccoc1C	97	-3	128	92
Cc1cccc(NC(c2ccccc2F)c2c(NC(=O)c3ccccc3)sc(C)c2C)n1 (stereo unspecified)	105	-33	.	.
CCOc1ccc(NC(=O)Cn2cc(S(=O)(=O)N3CCN(c4ccccc4F)CC3)c3ccccc3c2=O)cc1	107	-3	97	86
Cc1cc(C)c(NC(=O)C(C)n2nc(-c3ccc(C)c(C)c3)ccc2=O)c(C)c1 (stereo unspecified)	104&97	-22&-16	109	78

The listing continues:
SMILES	GIV-Gai inh	HCMV UL50-53 inh	Sa growth inh	Sa growth inh second temp
N#Cc1c(N)n(-c2cccc(Cl)c2)c2nc3ccccc3nc12	116	-9	106	93
CS(=O)(=O)N(CC(=O)Nc1ccccc1)Cc1ccc(Cl)cc1	98	-12	88	95
Cc1ccc(Cn2c(=O)n(-c3cccc(C(F)(F)F)c3)c(=O)c3c(C)c(C)sc32)c(C)c1	99	-8	111	88
CC(C)Oc1ccc(CNS(=O)(=O)c2csc(C(N)=O)c2)cc1	100	.	70	87
COc1ccc2[nH]cc(-c3csc(N)n3)c2c1	175	-27	102	67
O=C(CC1=NS(=O)(=O)c2ccccc2N1)NCc1ccc(F)cc1	99&105	-34&-3	82	72
CCn1c(C)c(C)c2cc(C(=O)NCCCN3CCCCC3)ccc21	117	.	96	100
O=c1nc(SCc2ccccc2F)c2c(n1Cc1ccccc1)CCC2	104	-15	.	.
CC(=O)Nc1nc2nc(C(F)(F)F)cc(=O)n2[nH]1	.	-9	98	90
Cc1c(NC(=O)Nc2ccccc2)sc2nc(-c3ccc(Cl)cc3)nn12	99	-19	114	96
O=C(NCc1ccc2c(c1)CCN2C(=O)c1ccncc1)c1ccccc1Cl	99	.	123	79
CN1/C(=C/C#N)Sc2ccccc21	.	-3	88	51
CCOC(=O)c1ccccc1NC(=O)C12CC3CC(CC(C3)C1)C2	110	.	105	83
COc1ccccc1C(=O)O	.	-5	110	85
CCCCCc1ccc(-c2ccc(C(=O)Nc3ccc(Cl)c4c3C(=O)c3ccccc3C4=O)cc2)cc1	99	-6	.	.
CNC(=O)c1nc(Nc2ccc(F)cc2)c2ccccc2n1	102	-5	.	.
Cc1cc(-n2cnc(-c3cn[nH]c3C)n2)no1	106	5	102	99
O=c1cc(-c2cccnc2)nc2cc(-c3ccco3)[nH]n12	106	-27	94	87
COc1cccc(CN2C(=O)c3ccccc3Sc3ccc(C(=O)NCCc4ccc(Cl)cc4)cc32)c1	104	-23	104	93
CC1CC2c3cccc(C(=O)O)c3C(=O)N2c2ccc(Cl)cc21 (stereo unspecified)	.	-14	91	93
CCCNC(=O)Nc1cccc(-c2noc(Cc3ccc(Cl)cc3)n2)c1	103	0	.	.
CCc1ccc(NC(=O)N2c3ccccc3Sc3ccccc32)cc1	110	-14	105	89
N#Cc1c(-c2ccccc2)cc(-c2ccccc2)nc1SCC(=O)Nc1ccc(Cl)cc1	114	-38	101	103
Cc1ccc2c(COC(=O)c3ccc(N(C)C)cc3)cc(=O)oc2c1	.	-10	118	87
COc1ccc(-c2coc3c2c(C)cc2oc(=O)c(C)c(C)c23)cc1	106	-29	101	89
C=C(C)C(=O)Nc1ccc(Oc2ccccc2F)nc1	100	-18	84	86
Cc1cc(NC(=O)Nc2ccc(F)cc2)c(C(F)(F)F)o1	105	-16	93	86
CC1(C)CC(=O)c2c(oc3ccc(NS(=O)(=O)c4ccc5ccccc5c4)cc23)C1	100	.	115	88
Cc1[nH]c(=O)[nH]c(=O)c1S(=O)(=O)N1CCCC1	103	-14	.	.
Cc1ccc(N2C(=O)C(N3C(=O)c4ccccc4C3=O)C2c2ccc3c(c2)OCO3)cc1 (stereo unspecified)	102	-24	115	102
CCS(=O)(=O)N1CCc2cc(C(=O)N3CCc4ccccc4C3)ccc21	106	11	.	.
CCc1cc(C(O)(C(F)(F)F)C(F)(F)F)c(O)c(C(O)(C(F)(F)F)C(F)(F)F)c1	108	-8	45	47
Cc1cc(=O)[nH]c(SCc2nc(-c3ccc(OC(C)C)cc3)oc2C)n1	102	-23	.	.
CCOc1ccc(CNC(=O)C2(NS(=O)(=O)c3cccc4cccnc34)CCCCC2)cc1	107	-34	.	.
COc1ccc(OC)c2sc(N3CCN(C(=O)c4ccco4)CC3)nc12	95	.	86	88
C/C(=C/c1ccccc1)C(=O)N1CCN(Cc2ccccc2)CC1	112	6	99	98
CCOC(=O)Cc1[nH]nc2c1C(c1ccc(Cl)cc1)C(C#N)=C(N)O2 (stereo unspecified)	.	0	84	96
FC(F)(F)c1ccnc(Sc2n[nH]c(C(F)(F)F)n2)c1	105	-8	62	28
CN(CCc1ccccn1)S(=O)(=O)c1ccc(F)cc1	96	-14	98	87
COC(=O)c1cc2ccccc2c(-c2c(O)ccc3ccccc23)c1O	.	-6	57	84

Filtered by structure, the compounds so far with a COOH group
SMILES	GIV-Gai inh	HCMV UL50-53 inh	Sa growth inh	Sa growth inh second temp
COc1ccccc1C(=O)O	.	-5	110	85
CC1CC2c3cccc(C(=O)O)c3C(=O)N2c2ccc(Cl)cc21 (stereo unspecified)	.	-14	91	93

Profiles as entered above. Screens in order: GIV-Gai inh	HCMV UL50-53 inh	Sa growth inh	Sa growth inh second temp
`CC1(C)CC(=O)c2c(oc3ccc(NS(=O)(=O)c4ccc5ccccc5c4)cc23)C1` as listed: 100	.	115	88
`Cc1[nH]c(=O)[nH]c(=O)c1S(=O)(=O)N1CCCC1` as listed: 103	-14	.	.
`Cc1cc(NC(=O)Nc2ccc(F)cc2)c(C(F)(F)F)o1` as listed: 105	-16	93	86
`COc1ccc(OC)c2sc(N3CCN(C(=O)c4ccco4)CC3)nc12` as listed: 95	.	86	88

Additional compounds
SMILES	GIV-Gai inh	HCMV UL50-53 inh	Sa growth inh	Sa growth inh second temp
CCC(=O)Nc1ccc(-c2nc3ncccc3o2)cc1C	107	-6	95	90
S=c1nc(-c2ccco2)n(Cc2ccccc2)c(=S)n1C(=NCc1ccccc1)c1ccco1	103	-14	92	81
CCOc1ccc(CC(=O)Nc2ccccc2)cc1OCC	.	-8	93	90
CS(=O)c1nc(-c2ccc(Br)cc2)cc(-c2ccccc2)c1C#N (stereo unspecified)	107	-7	94	88
N#CC1(N)CCCC1	.	-12	66	91
COc1cc(SC#N)ccc1O	.	-10	24	33
NC(=O)c1ccccc1N	.	-9	94	86
Cc1ccc2c(c1)N(CC(=O)NCC1CCCO1)C(=O)CO2 (stereo unspecified)	101	10	.	.
Cc1[nH]n(-c2ccccc2)c(=O)c1C=Nc1ccc(S(=O)(=O)N=C(N)N)cc1	93	.	91	66
Cc1cc(C)nc(NNS(=O)(=O)c2ccc(Cl)cc2)n1	.	-15	94	90
CCCCc1ccc(NC(=O)CC#N)cc1	.	9	100	98
CC(C(=O)O)N1CCCC1 (stereo unspecified)	106	-3	93	79
CCCOC(=O)CN1C(=O)c2ccc(Br)cc2C1=O	97	-15	98	89
Cc1ccn2c(=O)c(Cc3nnc(SCC(=O)Nc4nnc(C)s4)n3C)c(C)nc2c1	110	-3	.	.
O=C(Nc1nncs1)c1cc(-c2cccc(Br)c2)nc2ccccc12	107	-17	.	.
Cn1c(O)c(/C=N/c2sc3c(c2C#N)CCC3)c(=O)n(C)c1=O	.	31	114	107
Cc1cccc(C(=O)N2CCc3cc(CNC(=O)c4cc5ccccc5[nH]4)ccc32)c1	105	.	103	102
CCC(C)NC(=O)c1cc2sccc2n1C (stereo unspecified)	108	-16	.	.
CCc1nnc2c3ccccc3nc(NC3CCN(Cc4ccccc4)CC3)n12	111	2	.	.
O=c1c2c3c(sc2ncn1Cc1ccccc1)CCC3	.	-12	119	83
COc1ccccc1OCCCn1c(-c2ccc(Cl)cc2)nc2ccccc2c1=O	101	-10	98	91
Nc1ccc2nc(C(F)(F)F)[nH]c2c1	97&105	3	79&95	95&77
CCCCNS(=O)(=O)c1ccc(/C(C)=N/NC(=O)c2ccc(N)cc2)cc1	.	-28	93	89
COc1ccc(N2CCN(C(=O)COC(=O)Cc3ccccc3)CC2)cc1	.	-10	96	99
Cc1c(C(=O)NCc2ccccc2)sc2nc3n(c(=O)c12)CCCCC3	102	-16	108	93
COc1ccc(C(=O)CSc2nnc(C3CCCCC3)n2N)c(OC)c1	.	2	109	85
O=C(O)CCSc1ccc(Cl)cc1	.	-38	103	79
S=C(NCC1CC1)Nc1ccc2[nH]ccc2c1	105	0	110	85
COc1cccc2c1OC1(CCN(C(C)C)CC1)N1N=C(c3cccs3)CC21 (stereo unspecified)	106	-9	100	78
CNC(=O)c1c[nH]n2c(=O)c(Cc3ccccc3F)c(C)nc12	99	5	105	91
COC(=O)CSc1cccc2c1C(=O)CC2c1ccccc1 (stereo unspecified)	107	-23	.	.
COc1ccc(C(=O)NC(=O)CSc2nc3ccccc3n2CCC#N)cc1	.	-6	94	88
C#C[C@]1(O)CC[C@H]2[C@@H]3CCC4=CC(=O)CC[C@@H]4[C@H]3CC[C@@]21C	100	-33&-16&-39	97	91
CNC(=O)/C(C#N)=C/c1c(Oc2ccccc2)nc2ccccn2c1=O	94	-79	83	73
O=C(O)CC1(CC(=O)N2CCN(C(=O)CC3(CC(=O)O)CCCCC3)CC2)CCCCC1	.	-26	87	95
O=C(NCCc1ccccc1)NC1CCCCC1	101	3	105	108
Cn1c(=O)sc2cc(NC(=O)c3ccccc3)ccc21	105	-7	.	.
Cc1cccc(C)c1Nc1nn2c(=O)c3ccccc3nc2s1	102	.	84	79
Cn1c(C(=O)NC2CCCCC2)cc2c(=O)[nH]c3ccccc3c21	102	8	81	101
CSc1ccc(Sc2ccc(SC)cc2)cc1	103	.	119	90
Cc1cccc(NC(=O)COC(=O)CN=C2NS(=O)(=O)c3ccccc32)c1C	.	-8	112	89
COc1ccccc1N(CC(O)CN1CCOCC1)S(=O)(=O)c1ccc(C)cc1 (stereo unspecified)	104	.	115	94
Cc1cn(C)c(CC(=O)N2CCN(c3cccc(Cl)c3)CC2)c1C(=O)O	103	.	108	85
COc1cc(C(=O)Nc2c(C(=O)c3ccccc3)oc3ccccc23)cc(OC)c1OC	101	.	104	62
CCOc1ccc(/C=C2\C(=O)NC(=S)N(c3ccccc3F)C2=O)c2ccccc12	109	-47	.	.
Cc1cccc(-c2noc(CN(C(=O)COc3ccc(C(C)C)cc3)C(C)C)n2)c1	98	-31	105	86
CCOc1ccc(N2C(=O)c3ccccc3NC2c2ccc(Br)cc2)cc1 (stereo unspecified)	100	-12	.	.
CCn1nnc2cc(C(=O)Nc3ccc(Cl)cc3C)ccc21	109	.	92	100
O=C(Cn1nc(C(F)(F)F)c2c1CCCC2)Nc1ccc(F)c(Cl)c1	103	-31	92	91
O=C(Nc1cccnc1)C1CCCS1 (stereo unspecified)	105	8	107	78
CCc1cnc2c(c1SCC(=O)Nc1ccc(OC)c(OC)c1)c(=O)n(C)c(=O)n2C	103	.	155	86
